gsp antag = qHTS for Antagonists of gsp, the Etiologic Mutation Responsible for Fibrous Dysplasia/McCune-Albright Syndrome: qHTS. gsp-mutant cells, cAMP HTRF, 30 min; control for the full effect not named in the record. Potency, µM (doses to about 76.9 µM), for the others: at the top dose activity change, negative = inhibition, actives largely listed as inhibitors. hit rate 0.4% among 340,000. AID 624288, 2012; active = falling curve of any shape with a large fitted effect; inconclusive = falling curve, mostly with a smaller effect; inactive = flat or rising curve; cell line not stated here;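 note: intracellular cAMP measured with PDE inhibitor Ro 20-1724 present during compound exposure; potency is the fitted concentration of half-maximal effect; % is set by controls: 0 for no effect and ±100 for the full control effect; nearly all actives have a fitted effect of over 65% in size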
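HTRF cAMP measurement after 30 min RT detection following 30 min, 37C compound treatment alongside […] (added as 300 uM solution) in G418-selected cells seeded at 2000/well and grown 16–24 h.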
TRPV1 PAM = HTS Assay for Compounds that Act as Potentiators of the Vanilloid Receptor 1; Transient receptor potential cation channel subfamily V member 1 (Homo sapiens), Q8NER1; TRPV1-expressing cells, Fluo-8 calcium influx, capsaicin EC20 potentiation; host cell line not named in the record; control for the full effect not named in the record; potentiation, % at 8.33 µM; hit rate 0.02% among 320,000; AID 540277, 2011; active means potentiation above 80%; inconclusive means 30% to 80%; inactive means below 30%; note: 0% is about no effect
Target sequence (Q8NER1 whole entry, looked up): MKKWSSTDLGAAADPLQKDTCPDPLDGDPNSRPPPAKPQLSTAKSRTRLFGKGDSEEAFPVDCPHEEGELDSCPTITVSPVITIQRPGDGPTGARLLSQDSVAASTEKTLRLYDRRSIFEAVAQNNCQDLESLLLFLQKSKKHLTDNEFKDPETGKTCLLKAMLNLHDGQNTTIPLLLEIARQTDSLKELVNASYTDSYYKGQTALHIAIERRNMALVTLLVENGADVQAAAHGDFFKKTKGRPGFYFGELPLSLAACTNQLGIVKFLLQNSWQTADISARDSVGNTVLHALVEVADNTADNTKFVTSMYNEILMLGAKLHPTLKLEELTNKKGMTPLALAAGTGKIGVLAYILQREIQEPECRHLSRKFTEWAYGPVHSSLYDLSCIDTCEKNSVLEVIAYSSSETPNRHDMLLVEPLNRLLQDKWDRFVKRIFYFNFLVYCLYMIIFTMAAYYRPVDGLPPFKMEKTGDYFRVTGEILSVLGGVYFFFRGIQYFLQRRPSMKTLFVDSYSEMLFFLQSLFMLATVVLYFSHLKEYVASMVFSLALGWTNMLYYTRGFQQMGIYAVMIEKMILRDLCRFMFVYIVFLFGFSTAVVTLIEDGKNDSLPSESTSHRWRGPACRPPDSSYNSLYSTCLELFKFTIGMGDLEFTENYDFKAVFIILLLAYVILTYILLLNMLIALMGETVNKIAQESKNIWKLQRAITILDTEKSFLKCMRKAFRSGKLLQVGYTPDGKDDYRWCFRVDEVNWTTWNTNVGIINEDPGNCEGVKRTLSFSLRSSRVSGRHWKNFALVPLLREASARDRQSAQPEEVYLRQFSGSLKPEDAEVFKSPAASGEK
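TRPV1-expressing cells were cultured overnight at 35.5C and loaded with Fluo-8 calcium dye for 40 to 90 min at room temperature. After a 10 s baseline, compound was added and calcium influx was read kinetically for 3 min (ex 480/em 520 nm).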
ClpP mod = qHTS Assay for Activators of ClpP | Potency, µM (titrated, usually from 57.5 µM), for inactives: at the top dose activity change, negative = active | purified B. subtilis ClpP, FRET peptide cleavage, 20 min | hit rate 1.9% among 340,000 | ATP-dependent Clp protease proteolytic subunit (Bacillus subtilis (strain 168)), P80244; active = well fitted falling curve with a large enough effect; inconclusive = small, poorly fitted or top-dose-only effect; inactive = no such curve, though single readings can be large or run the other way; note: potency is the fitted concentration of half-maximal effect; the source files actives as falling curves though it sought activators and does not explain the sign; nearly all actives have a fitted effect of over 65% in size; many hits overshoot -100%
Target sequence (P80244 whole entry, looked up): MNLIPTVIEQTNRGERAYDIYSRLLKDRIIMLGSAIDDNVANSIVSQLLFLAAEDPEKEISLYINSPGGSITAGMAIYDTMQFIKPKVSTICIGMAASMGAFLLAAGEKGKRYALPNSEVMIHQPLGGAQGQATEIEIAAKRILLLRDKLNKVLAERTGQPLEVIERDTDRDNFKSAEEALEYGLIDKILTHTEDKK
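Purified B. subtilis ClpP, 10 microg/mL final in Tris/HCl pH8 with KCl, BSA, glycerol and Tween-20, cleaved an Abz/nitrotyrosine-quenched decapeptide. Fluorescence (ex 320, em 430) was read at 0 and 20 min at room temperature. Delta was normalized to 5.8 microM ADEP and DMSO/no-enzyme controls.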
Sfp PPTase inh = qHTS Assay for Inhibitors of Bacillus subtilis Sfp phosphopantetheinyl transferase (PPTase); 4'-phosphopantetheinyl transferase ffp (Bacillus subtilis), Q9F4F7; Biochemical Sfp PPTase activity, qHTS; Potency, µM, inactives show max response, negative = inhibition, hits mostly inhibitors; hit rate 3.5% among 310,000; AID 1490, 2009; active = well fitted inhibition curve with a large enough effect; inconclusive = small, poorly fitted or top-dose-only effect, or another doubt; inactive = no such curve, though single readings can be large or run the other way;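 note: the enzyme is Sfp with the accession as filed and its product quenches rhodamine fluorescence; potency is the fitted concentration of half-maximal effect; 0% = enzyme reaction without inhibitor and -100% = no enzyme wells; top concentration of the series not given in the record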
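With Hepes-Na pH 7.6 buffer containing 10 mM MgCl2, Sfp (15 nM) modified BHQ-2-YbbR (12.5 uM) using rhodamine-CoA (5 uM). Two reads 30 minutes apart at 525/598 nm yielded each well's rate.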
TRPML1 inh = qHTS for Inhibitors of the Human Mucolipin Transient Receptor Potential 1 (TRPML1); activity change, negative = inhibition, % (concentration not given with the values); TRPML1-inducible cells, Ca2+ dye fluorescence, FDSS; active compounds read low; inhibition of EC80 agonist-evoked calcium signal; Mucolipin-1 (Homo sapiens), Q9GZU1; hit rate 0.02% among 390,000; in the data active means activity change below about -50%; inconclusive means about -30% to -50%; inactive means above about -30%;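 note: stimulus is agonist 54-4 at its EC80 concentration; % is set by controls: 0 for no effect and ±100 for the full control effect; the text of the record puts the active cut at -80%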
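TRPML1-DL cells, Tet-induced overnight (~16 h, 37 °C) at 1,500 cells/well, were loaded with Ca8 no-wash dye plus quencher for 45-90 min at room temperature. Compounds were pinned during FDSS kinetic reading; agonist 54-4 at EC80 (4 uM final) then added.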
gsp ag = qHTS for Agonist of gsp, the Etiologic Mutation Responsible for Fibrous Dysplasia/McCune-Albright Syndrome: qHTS. Potency, µM (highest dose often 76.9 µM), for inactives: at the top dose activation (cAMP increase), most hits filed as activators. AID 624287, 2012. gsp mutant cells, cAMP HTRF, 30 min; control for the full effect not named in the record. hit rate 0.13% among 340,000; active = well fitted activation curve with a large enough effect; inconclusive = small, poorly fitted or top-dose-only effect, or another doubt; inactive = no such curve, though single readings can be large or run the other way; cell line not stated here;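 note: phosphodiesterase inhibitor Ro 20-1724 added with compounds to block cAMP breakdown; potency is the fitted concentration of half-maximal effect; nearly all actives have a fitted effect of over 60% in size; about a fifth of the inactives were tested at one dose only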
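Cells stably selected in G418 were plated at 2000/well, grown 16-24 hr, then given compounds in DMSO with the PDE inhibitor […] (300 uM solution added) for 30 min at 37C; cAMP was read by HTRF.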
Menin-MLL FL inh = qHTS Assay for Inhibitors Targeting the Menin-MLL Interaction in MLL Related Leukemias: Competition With Fluorescein Labeled MLL-derived Peptide; Fluorescence polarization, fluorescein-MLL peptide displacement from menin; FP activity change, % at 61.4 µM; 290,000 tested, under 10 active; AID 1766, 2009; inconclusive = falling polarisation curve, or a change in total fluorescence; inactive = total fluorescence flat and polarisation flat or rising; no compound was filed as active; the % refers to the polarisation; negative = inhibition;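 note: % of control where 0% means no effect; inhibitors lower the polarisation; unlabelled MLL peptide was the positive control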
Numbers without * were called inactive; ? = inconclusive; . = not tested or not shown; & = joins results of further samples; [ ] = remark or other dose.

Below each compound: gsp antag	TRPV1 PAM	ClpP mod	Sfp PPTase inh	TRPML1 inh	gsp ag	Menin-MLL FL inh
- Cc1c(S(=O)(=O)N2CCN(c3cccc(Cl)c3)CC2)c(=O)n(C)c(=O)n1C
    -4%	24	-0.9%	9%	-15	-10%	.
- Cn1c(CNC(=O)CCNC(=O)c2ccccc2F)cc(=O)n(C)c1=O
    11%	2	-0.6%	11%	2	23%	0.0
- CCCc1nnc(SCC(=O)Nc2ccc(OCC)cc2)n1N
    7%	5	1.4%	11%	4	-14%	0.2
- C=CCc1ccc(OCCn2cncn2)c(OC)c1
    7%	?	3.1%	20%	22	11%	-1.9
- Cc1cccc2cc(COC(=O)c3cccs3)c(=O)[nH]c12
    18%	10	0.5%	-7%	-9	-15%[15.4 µM]	-0.1
- OC(c1ccccc1)C(NCCNCc1ccccc1)c1ccccc1 (stereo not given)
    17%	.	.	.	7	-89%[inhibitor]	.
- O=C(Nc1ccc(F)cc1)c1cc(-c2ccccc2)no1
    5%	-10	2.9%	23%	12	27%	-4.5
- CCOc1ccc(-n2c(SCC(=O)Nc3ccc(Br)cc3)nc3n[nH]c(C)c3c2=N)cc1
    ?	20	.	-5%	-10	21%[15.4 µM]	-4.8
- COc1ncnc2c1cnn2-c1ccccc1
    10%	-2	-14%	-1%	-1	-6%	-1.4
- NS(=O)(=O)c1ccc(CCNC(=O)c2cc([N+](=O)[O-])ccc2N2CCCCC2)cc1
    -12%	-11	.	16%	42	-13%	-1.8
- COc1cccc(-c2ccc(=O)n(CC(=O)NCCN3CCOCC3)n2)c1
    3%	21	-1.2%	1%	-63*	0%	4.0
- Cc1cccc(CN(C)C[C@@H]2OCc3cnnn3CCCC(=O)N([C@H](C)CO)C[C@H]2C)c1
    .	.	2.1%	.	-1	20%	.
- CCOC(=O)C1CCN(CC(=O)Nc2c(C(=O)OC)[nH]c3ccc(Cl)cc23)CC1
    ?	23	28µM*	15%	-4	12%	1.2
- CS(=O)(=O)c1ccc(-c2nnc(NC(=O)c3ccc(S(=O)(=O)N4CCCC4)cc3)o2)cc1
    3%	3	-1.5%	.	14	-70%[inhibitor]	.
- CSc1cccc(N2C(=O)C3CCCN3C2=S)c1 (stereo not given)
    -3%	6	.	5%	42	2%	-4.4
- C#CCOCCOCCOCCNc1nc(N2CCOCC2)nc(N2CCN(C(=O)[C@H]([C@@H](C)CC)n3cc([C@@H](N)Cc4ccc(O)cc4)nn3)CC2)n1
    7%	2	-0.8%	11%	1	-1%	-1.3
- CCOC(=O)c1ccc(NC(=S)N2CCN(Cc3ccccc3)CC2)cc1
    -1%	-8	-3.7%	18%	-16	-23%	13
- CC1CC(NC(=O)c2cc3c(=O)n4ccccc4nc3n2C)CC(C)(C)C1 (stereo not given)
    15%	12	.	7%	-6	?	.
- Cc1ccc(C)c2c1cc(C)c1nnc(SCC(=O)NCc3ccc4c(c3)OCO4)n12
    -13%	-1	-20%	-1%	-9	-6%	4.4
- COc1cc2c(C(=O)N3CCOCC3)c(CSc3ccccc3)n(C)c2cc1Br
    -25%	102*	-2.7%	3%	74	27%	-3.5
- CSc1ncc(Cl)c(C(=O)Nc2ccc(S(=O)(=O)Nc3nccc(C)n3)cc2)n1
    10%	16	-2.4%&2.2%	12%	17&-17	?	.
- O=C(Nc1ccccc1Cl)Oc1ccc2ccccc2c1
    .	9	.	19%	.	.	2.9
- Cc1ccc(/C=N/NC(=O)Cc2ccc(Cl)cc2)c(O)c1
    8%	5	0.8%	18%	0	2%[15.4 µM]	-4.6
- O=C(c1nc2ccc(Cl)cn2c1CN1CCC(CO)CC1)N1CCc2ccccc2C1
    24%	-6	-29%	10%	9	-22%	1.3
- Cc1c(NC(=S)N/N=C/c2ccc(O)cc2)c(=O)n(-c2ccccc2)n1C
    -1%	20	-11%	-20%	17	-2%	0.5
- CC(C)(C)OC(=O)NCCCC[C@H](NC(=O)c1nc[nH]c1C(=O)N1CCN(C(=O)OC(C)(C)C)CC1)C(=O)OC(C)(C)C
    -11%	2	2.4%	9%	63	-7%	3.7
- CC[C@]12c3[nH]c4ccccc4c3CCN1C(=O)C(CC(=O)NCCC1=CCCCC1)C[C@@H]2C(=O)N1CCN(C(=O)C2CC2)CC1 (stereo not given in full)
    -8%	.	-0.2%	.	-5	.	.
- COc1cccc(/C=N/NC(=O)CC2C(=O)NN=C2C)c1O (stereo not given)
    3%	7	-11%	8%	4	31%	2.3
- O=C(NNC1=Nc2cc([N+](=O)[O-])ccc2OC1)c1ccccc1Cl
    -3%	0	-1.0%	14%	-17	?	2.2
- CC(=Nc1cc(C(=O)c2ccccc2)ccc1N)C1=C(O)CC(C)(C)CC1=O
    1%	-15	.	-10%	-8	6%[15.4 µM]	-0.9
- Cc1c(C(=O)N2CCN(C)CC2)oc2ccc(S(=O)(=O)N3CCOCC3)cc12
    10%	6	0.2%	9%	-5	10%	1.5
- O=C(CCCCCNc1nc(=S)[nH]c2ccccc12)NCCc1ccccc1
    7%	5	-5.2%	6%	-20	?	2.8
- CC(C)(C)N(Cc1ccccc1)C(=O)COC(=O)Cn1[nH]c(=O)c2ccccc2c1=O
    .	.	-5.8%	.	20	-9%	.
- CCc1sc(C(=O)Nc2ccc(NC(C)=O)cc2)cc1C
    5%	-14	3.4%	21%	-15	-62%[inhibitor]	4.1
- C#CC[N+](CC)(CC)CC#Cc1cccc(Cl)c1
    13%	3	-1.1%	16%	2	-6%	7.5
- CC(=O)N1C(C(=O)O)CSC1c1ccc(C)cc1 (stereo not given)
    -2%	10	1.1%	-5%	2	-29%	1.6
- COc1ccccc1/C=C(/NC(=O)c1ccccc1)C(=O)NCCN1CCOCC1
    5%	-5	.	14%	-13	15%	.
- O=C(O)CC(Sc1n[nH]c(=S)s1)C(=O)O (stereo not given)
    17%	?	0.7%	16µM*	14	-28%	-1.9
- CN(CC(=O)Nc1c(Cl)cccc1Cl)C(=O)C1CSC2(C)CCC(=O)N12 (stereo not given)
    7%	6	0.8%	.	-15	-2%	.
- COc1ccc(NC(=S)NCc2ccccn2)cc1OC
    12%	-4	-1.3%	-24%	-2	33%	1.7
- Cc1cc(C(c2ccc(C)o2)c2ccc(C)o2)c(O)c([N+](=O)[O-])c1
    ?	-2	1.7%	50µM*	-2	28%	4.5
- N#CC1=C(N)Oc2cc(N)ccc2C1c1cccc(F)c1 (stereo not given)
    8%	4	.	-6%	8	11%	12
- O=C(Nc1nnc(-c2ccccc2Cl)o1)c1cc2cc([N+](=O)[O-])ccc2s1
    .	-4	.	5%	.	.	5.4
- O=C(Cc1c(F)cccc1Cl)Nc1nccs1
    -1%	10	-2.2%	14%	13	-11%[15.4 µM]	2.2
- CCOC(=O)N1CCC(NC(=O)C2CCN(C(=O)N3CC(C)Oc4ccccc43)CC2)CC1 (stereo not given)
    -8%	1	-1.4%	9%	1	-16%	-1.3
- COc1ccccc1N=C(C)C1=C(O)CSC1=O
    4%	4	-13%	-23%	-7	5%	3.4
- O=C(NCc1ccccc1)C(c1ccc(F)cc1)N(C(=O)c1csnn1)C1CC1 (stereo not given)
    -2%	?	.	10%	-11	?	-0.7
- Cc1cccc2c1CC(C)(C)NC2=C(C#N)C#N
    1%	14	-1.2%	14%	-8	8%[15.4 µM]	-0.4
- COc1ccccc1NC(=O)C(=O)NNS(=O)(=O)c1ccc2ccccc2c1
    -19%	19	-3.4%	6%	5	17%	1.8
- O=C(NCCCN1CCCC1=O)c1cccc(N2CCCC2=O)c1
    10%	11	-0.3%	7%	10	8%	-0.8

A few values from the entries so far:
CN(CC(=O)Nc1c(Cl)cccc1Cl)C(=O)C1CSC2(C)CCC(=O)N12 (stereo not given) | TRPML1 inh = -15
CC[C@]12c3[nH]c4ccccc4c3CCN1C(=O)C(CC(=O)NCCC1=CCCCC1)C[C@@H]2C(=O)N1CCN(C(=O)C2CC2)CC1 (stereo not given in full) | ClpP mod = -0.2%

Other entries:
Below each compound: gsp antag	TRPV1 PAM	ClpP mod	Sfp PPTase inh	TRPML1 inh	gsp ag	Menin-MLL FL inh
- O=C(NCCc1ccccc1)C(=O)Nc1ccc2c(c1)OCCO2
    7%	-10	0.6%	11%	-3	-46%[inhibitor]	-2.3
- COc1cccc(NC(=O)C(c2ccccc2)N2CCCC2)c1 (stereo not given)
    0%	-3	-0.7%	15%	-1	-7%[15.4 µM]	0.5
- COC(=O)c1c(C)[nH]c(C(=O)OCc2ccc(F)cc2)c1C
    -4%	-9	0.7%	13%	-1	-1%	3.5
- CC(C)(C)OC(=O)CNC(=O)c1[nH]cnc1C(=O)N[C@@H](Cc1ccccc1)C(=O)OCc1ccccc1
    -9%	-7	1.6%	20%	9	.	-2.7
- Cc1[nH]c2ccc(F)cc2c1CCN(Cc1cccnc1)C(=S)Nc1ccccc1
    -18%	-10	0.4%	13%	23	-80%[inhibitor]	8.1
- COCCN1C(=O)C(=O)/C(=C(/O)c2ccc(C)cc2)C1c1ccccn1 (stereo not given)
    8%	-3	-3.0%	2%	-10	3%	0.2
- N#C/C(C(=O)N1CCOCC1)=C1/SC(Cc2ccccc2Cl)C(=O)N1c1ccccc1 (stereo not given)
    -2%	-6	-1.4%	10%	-8	-31%[inhibitor]	4.7
